Screens as filed in PubChem BioAssay.
CtBP-E1A inh – CtBP/E1A binding inhibition. AID 651724. activity change, % (no concentration beside the values). AlphaScreen GST-E1A/His-CtBP binding, 1536-well; stronger effect = lower value; control for the full effect not named in the record. 340,000 compounds, 0.49% hits; in the data active means activity change below about -65%; inconclusive means about -30% to -65%; inactive means above about -30%; note: % is set by controls: 0 for no effect and ±100 for the full control effect
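In 5 uL wells, 23 nL compound meets equimolar GST-E1A and His-CtBP (5X stock 125 nM each) for 2 h, 37 °C. Beads (5X, 50 ug/mL) then 1 h, 37 °C, dark.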
gsp antag – antagonizes gsp, the McCune-Albright syndrome mutation; gsp-mutant cells, cAMP HTRF, 30 min; control for the full effect not named in the record; Potency, µM (top dose mostly 76.9 µM), for inactives: at the highest dose activity change, negative = inhibition, hits mostly inhibitors; 340,000 compounds, 0.4% hits; AID 624288; active = falling curve of any shape with a large fitted effect; inconclusive = falling curve, mostly with a smaller effect; inactive = flat or rising curve; cell line not stated here;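 note: intracellular cAMP measured with PDE inhibitor Ro 20-1724 present during compound exposure; potency is the fitted concentration of half-maximal effect; % is set by controls: 0 for no effect and ±100 for the full control effect; nearly all actives have a fitted effect of over 65% in size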
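Cells in G418 medium, seeded 16-24 h, 37C; buffer exchange to DPBS + 1 mM CaCl2, 0.5 mM MgCl2, 0.05% BSA; cpds in DMSO + […] (300 uM stock), 30 min 37C; HTRF cAMP detection.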
Menin-MLL FL inh – menin-MLL binding inhibition, fluorescein peptide. Fluorescence polarization, fluorescein-MLL peptide displacement from menin. FP activity change, % at 61.4 µM. 290,000 tested, under 10 active. AID 1766; inconclusive = falling polarisation curve, or a change in total fluorescence; inactive = total fluorescence flat and polarisation flat or rising; no compound was filed as active; the % refers to the polarisation; negative = inhibition;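 note: % of control where 0% means no effect; inhibitors lower the polarisation; unlabelled MLL peptide was the positive control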
gsp ag – agonists of gsp mutant (McCune-Albright syndrome); Potency, µM (top dose mostly 76.9 µM), without a hit: at the highest dose activation (cAMP increase), usual class: activators; gsp mutant cells, cAMP HTRF, 30 min; control for the full effect not named in the record; 340,000 compounds, 0.13% hits; AID 624287; active = well fitted activation curve with a large enough effect; inconclusive = small, poorly fitted or top-dose-only effect, or another doubt; inactive = no such curve, though single readings can be large or run the other way; cell line not stated here;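 note: phosphodiesterase inhibitor Ro 20-1724 added with compounds to block cAMP breakdown; potency is the fitted concentration of half-maximal effect; nearly all actives have a fitted effect of over 60% in size; about a fifth of the inactives were tested at one dose only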
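Cells in DMEM/10% FBS with G418 were pretreated with compounds in DMSO plus […] (300 uM stock) for 30 min at 37C. cAMP was measured by HTRF (cAMP-d2 plus anti-cAMP antibody-K) after 30 min at room temperature.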
ClpP mod – qHTS Assay for Activators of ClpP; ATP-dependent Clp protease proteolytic subunit (Bacillus subtilis (strain 168)), P80244; purified B. subtilis ClpP, FRET peptide cleavage, 20 min; Potency, µM (titrated, usually from 57.5 µM), without a hit: top-dose activity change, negative = active; 340,000 compounds, 1.9% hits; active = well fitted falling curve with a large enough effect; inconclusive = small, poorly fitted or top-dose-only effect; inactive = no such curve, though single readings can be large or run the other way; note: potency is the fitted concentration of half-maximal effect; the source files actives as falling curves though it sought activators and does not explain the sign; nearly all actives have a fitted effect of over 65% in size; many hits overshoot -100%
Target sequence (P80244 whole entry, looked up): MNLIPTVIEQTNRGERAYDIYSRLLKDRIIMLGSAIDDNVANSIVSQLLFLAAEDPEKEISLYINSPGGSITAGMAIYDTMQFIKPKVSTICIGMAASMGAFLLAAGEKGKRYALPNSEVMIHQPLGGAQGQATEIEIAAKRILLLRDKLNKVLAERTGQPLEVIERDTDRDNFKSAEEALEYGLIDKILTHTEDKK
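ClpP 10 microg/mL final, pH 8 Tris/KCl buffer with BSA, glycerol, Tween-20; compound pinned in; FRET-FV substrate; RT 20 min; Ex320/Em430; ΔFRET vs ADEP 5.8 microM, DMSO, no enzyme.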
Sfp inh – inhibitors of Bacillus subtilis Sfp phosphopantetheinyl transferase | Biochemical Sfp PPTase activity, qHTS | Potency, µM, for inactives: max response, negative = inhibition, usual class: inhibitors | 310,000 compounds, 3.5% hits | AID 1490 | Q9F4F7; active = well fitted inhibition curve with a large enough effect; inconclusive = small, poorly fitted or top-dose-only effect, or another doubt; inactive = no such curve, though single readings can be large or run the other way;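 note: the enzyme is Sfp with the accession as filed and its product quenches rhodamine fluorescence; potency is the fitted concentration of half-maximal effect; 0% = enzyme reaction without inhibitor and -100% = no enzyme wells; top concentration of the series not given in the record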
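Sfp 15 nM + cpd, 15 min RT; start w/ rhodamine-CoA 5 uM, BHQ-2-YbbR 12.5 uM (final); 50 mM Hepes pH 7.6, 10 mM MgCl2, 0.01% NP-40, 0.01% BSA; read 525/598 nm at 0 and 30 min.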
TRPV1 PAM – enhances activation of the human vanilloid receptor TRPV1; TRPV1-expressing cells, Fluo-8 calcium influx, capsaicin EC20 potentiation; host cell line not named in the record; control for the full effect not named in the record; potentiation, % at 8.33 µM; 320,000 compounds, 0.02% hits; AID 540277; active means potentiation above 80%; inconclusive means 30% to 80%; inactive means below 30%; note: 0% is about no effect
Target sequence (Q8NER1 whole entry, looked up): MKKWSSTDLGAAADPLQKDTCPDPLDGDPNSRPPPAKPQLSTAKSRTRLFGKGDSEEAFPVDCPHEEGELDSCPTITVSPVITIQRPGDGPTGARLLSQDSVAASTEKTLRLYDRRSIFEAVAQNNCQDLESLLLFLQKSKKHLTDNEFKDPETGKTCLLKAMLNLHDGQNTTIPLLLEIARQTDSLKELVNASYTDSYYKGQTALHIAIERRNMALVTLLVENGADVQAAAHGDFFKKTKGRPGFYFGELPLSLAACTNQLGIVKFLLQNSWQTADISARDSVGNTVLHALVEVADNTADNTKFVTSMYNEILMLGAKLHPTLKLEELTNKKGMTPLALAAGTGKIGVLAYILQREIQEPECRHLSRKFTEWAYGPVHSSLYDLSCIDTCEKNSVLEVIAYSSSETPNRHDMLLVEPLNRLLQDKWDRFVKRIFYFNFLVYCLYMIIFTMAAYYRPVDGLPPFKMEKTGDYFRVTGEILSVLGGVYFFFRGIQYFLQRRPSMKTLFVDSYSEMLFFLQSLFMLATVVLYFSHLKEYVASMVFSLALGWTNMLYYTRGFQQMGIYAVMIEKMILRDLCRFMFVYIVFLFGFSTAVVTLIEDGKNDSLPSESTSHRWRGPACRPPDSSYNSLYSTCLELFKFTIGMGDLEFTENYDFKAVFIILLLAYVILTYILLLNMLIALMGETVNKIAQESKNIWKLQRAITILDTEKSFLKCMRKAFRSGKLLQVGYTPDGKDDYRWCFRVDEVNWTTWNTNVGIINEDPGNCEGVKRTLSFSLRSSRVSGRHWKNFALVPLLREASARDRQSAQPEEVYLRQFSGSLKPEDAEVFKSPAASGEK
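Cells expressing TRPV1 were dye-loaded with Fluo-8 and read kinetically: 10 s baseline, 3 min after compound (agonist portion), then 2 min after EC20 capsaicin (allosteric enhancer portion). Calcium-bound dye fluorescence at 480/520 nm.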
Active calls of the source: *; ? = inconclusive; / = no result given; [ ] = dose if it differs, or a comment. This is a random part of the collection; any-hit rate near 5.3%.

mol | CtBP-E1A inh | gsp antag | Menin-MLL FL inh | gsp ag | ClpP mod | Sfp inh | TRPV1 PAM
CCOC(=O)c1c(C)oc2ccc(OCC(=O)N(CC)CC)cc12 | -9 | -32% | 2.9 | -27% | -4.0% | -20% | 12
COCCNC(=S)N/N=C(\C)c1ccc(O)cc1 | -3 | 1% | 11 | -71%[inhibitor] | -0.4% | -4% | 7
CCOc1[nH]n(-c2ccc(Cl)cc2)c(=O)c1C=NCc1cccnc1 | / | -17% | 0.2 | -5% | 1.3% | -7% | -8
CCCN(C(=O)CSc1nnc(-c2ccncc2)n1CCC)c1c(N)n(Cc2ccccc2)c(=O)[nH]c1=O | 3 | / | / | 7% | 0.0% | / | /
CCC(=O)N1CCc2cc(S(=O)(=O)NCCC(=O)N3CCN(c4cccc(C)c4)C(C)C3)ccc21 (stereo not given) | / | -17% | / | -12% | 1.6% | 8% | 7
CCN1CCN(c2nc3ccccc3nc2C(C#N)S(=O)(=O)c2ccc(C)c(C)c2)CC1 (stereo not given) | -1 | 10% | -2.6 | -11% | -2.1% | 12% | ?
NC(=O)c1nn(-c2ccccc2)nc1NC(=O)CN1CCOCC1 | -5 | 6% | -2.4 | ? | -2.3% | 2% | -2
CCCCn1c(N)c(N(CC(C)C)C(=O)C2CCN(S(=O)(=O)c3ccc(F)cc3)CC2)c(=O)[nH]c1=O | 2 | -12% | / | -4%[15.4 µM] | -0.7% | -11% | 8
COc1ccc(N(CC(=O)NCc2ccncc2)S(=O)(=O)c2ccc(C)c([N+](=O)[O-])c2)cc1 | 2 | -24% | 2.8 | 12% | -0.4% | 6% | -22
CCCOC(=O)c1ccc(NC(=O)c2cnccn2)cc1 | -1 | -15% | 1.4 | 9% | 0.0% | 4% | 0
O=C(NCc1ccc(Cl)cc1)c1cc(=O)[nH]c2ccc(S(=O)(=O)N3CCOCC3)cc12 | 10 | 13% | 2.7 | -2%[15.4 µM] | / | 19% | -5
COCOCCn1cc(CN2CCS(=O)(=O)N(Cc3ccc(-c4ccc(Cl)nc4)cc3)C(C(C)C)C2=O)nn1 (stereo not given) | 1 | / | / | -78%[inhibitor] | -3.6% | / | /
CCn1cc(/C=C(\NC(=O)c2ccccc2Cl)C(=O)NCCN2CCOCC2)c2ccccc21 | 2 | -6% | 1.0 | 2% | -3.3% | 19% | 2
CN(Cc1ccc(Cl)c(Cl)c1)C(=O)C1=CC=CN2CCS(=O)(=O)N=C12 | / | 3% | / | 18% | 4.5% | / | -1
COc1ccc(-c2ccc3[nH]c4c(c3c2)CCN2C[C@@H]([C@H](C)O)[C@@H](N(C)C(=O)Nc3cc(Cl)cc(Cl)c3)C[C@@H]42)cc1 | -28 | / | / | ? | -8.6% | / | /
COc1ccc(NC(=O)CN(Cc2ccccc2)S(C)(=O)=O)c(OC)c1 | 5 | -4% | 2.9 | -3% | 0.3% | 11% | 9
CCOc1cc(C(=S)N2CCC(O)CC2)ccc1OS(=O)(=O)c1ccc(Br)cc1 | 4 | -28% | -1.2 | 2% | -1.0% | ? | -6
N#Cc1ccc(OCC(=O)NCCCn2ccnc2)cc1 | ? | 8% | / | -83%[inhibitor] | / | / | /
Cc1ccc(NC(=O)COc2ccc(N(C)C(=O)C(C)(C)C)cc2)cc1S(=O)(=O)N1CCCCC1 | -7 | 35µM* | / | -9% | -0.9% | / | /
CC1CCCN(C2=C(Cl)C(=O)N(c3cccc(Cl)c3)C2=O)C1 (stereo not given) | 0 | -8% | 4.6 | -2% | -3.1% | -24% | -15
COc1ccc(C(=O)C(=O)c2ccc(OCCO)cc2)cc1 | -14 | 0% | / | / | -0.1% | / | -11
CCOC(=O)c1cccc(NC(=O)CSc2nc(N)cc(N)n2)c1 | 0 | -6% | -0.4 | 3% | 0.8% | 18% | 10
Cc1ccc(S(=O)(=O)N(C)c2ccc(OCC(=O)NC3=NCCS3)cc2)cc1 | -3 | -5% | -1.1 | 2%[15.4 µM] | / | -1% | 3
COc1ccc(OC)c(CN2CCC(CNC(=O)Nc3cccc(Cl)c3)CC2)c1 | / | 11% | -2.8 | 16% | 1.3% | -12% | 4
Cc1ccccc1NC(=S)/C(=C(\[O-])c1cc(C)n(Cc2ccccc2Cl)c1C)[n+]1ccccc1 | 22 | / | 3.3 | -4%[15.4 µM] | / | -6% | 2

Overlap with the part before: two compounds; new compounds follow.
mol | CtBP-E1A inh | gsp antag | Menin-MLL FL inh | gsp ag | ClpP mod | Sfp inh | TRPV1 PAM
COc1ccc(OC)c(CN2CCC(CNC(=O)Nc3cccc(Cl)c3)CC2)c1 | / | 11% | -2.8 | 16% | 1.3% | -12% | 4
Cc1ccccc1NC(=S)/C(=C(\[O-])c1cc(C)n(Cc2ccccc2Cl)c1C)[n+]1ccccc1 | 22 | / | 3.3 | -4%[15.4 µM] | / | -6% | 2
CC12CC3CC(C)(C1)CC(C(=O)NC(=S)N1CCCCC1)(C3)C2 | 9 | -2% | -0.6 | -74%[inhibitor] | -0.3% | 8% | -5
Cc1cccc(NC(=S)NNC(=O)Cc2ccccc2)c1 | 3 | 5% | -0.2 | 16% | 1.0% | 21% | 25
O=C(O)c1ccc(CSc2nc(-c3ccc(Cl)cc3)cc(C(F)(F)F)n2)cc1 | 8 | ? | 1.9 | -1% | -9.3% | 50µM* | 20
O=C(Cn1nc2ccccc2n1)N/N=C/c1ccc(F)cc1 | -1 | -9% | 3.5 | 3%[15.4 µM] | / | -1% | 10
O=C(CSc1ccc2c(c1)OCCO2)Nc1ccccc1 | -6 | / | / | 9% | 0.9% | / | /
CC12CN3CCN(CC(C3)/C1=N\NC(=O)Nc1cccc(Cl)c1)C2 | 4 | 10% | 0.7 | 2% | / | 9% | 24
O=C(O)C1CC=CCC1C(=O)Nc1cccc(F)c1 (stereo not given) | -2 | -4% | 5.6 | -24% | -1.4% | 19% | 17
COc1ccc(NC(=O)CC2C(=O)NCCN2C(=O)c2ccc(N(C)C)cc2)cc1 (stereo not given) | 5 | -4% | 5.8 | 2%[15.4 µM] | 0.1% | 4% | -5
COCCCN1CC(=O)N2C(c3cccc(C)c3)c3[nH]c4ccccc4c3C[C@H]2C1=O (stereo not given in full) | 1 | -4% | 5.6 | 13% | / | 11% | -7
CCN(c1ccccc1)c1nc2ccsc2c(=O)s1 | 55 | -17% | 5.0 | 13% | -13% | ? | ?
O=C(CSc1nnc(COc2ccccc2F)n1-c1ccccc1)NC1CCS(=O)(=O)C1 (stereo not given) | -4 | 6% | 1.5 | 17%[15.4 µM] | / | 3% | 4
O=C(c1cc(S(=O)(=O)N2CCOCC2)ccc1Cl)N1CCCCC1CO (stereo not given) | 5 | 6% | / | 1% | / | / | /
Cc1cccc(-c2noc(CCC(=O)NC3CCCC3)n2)c1 | -1 | -6% | / | 23%[15.4 µM] | / | 17% | -13
O=C(CC1C(=O)NCCN1Cc1ccc(-c2ccccc2)cc1)NCCCn1ccnc1 (stereo not given) | 2 | -6% | 4.5 | -1% | -4.2% | 17% | 27
COc1ccccc1C/C(N)=N/OC(=O)c1ccc(C)c([N+](=O)[O-])c1 | -1 | -7% | 6.2 | -6% | -0.7% | 6% | -7
Cc1cc(NC(=O)c2cc(-c3ccncc3)nc3ccccc23)ccc1Br | 3 | -14% | / | -7% | -4.4% | / | /
O=C(CSc1nc2ccsc2c(=O)n1-c1ccccc1)N1CCCC1 | 4 | 6% | -3.3 | 25% | -0.3% | 4% | -1
O=C(Cn1c(=O)oc2cc(S(=O)(=O)N3CCCCC3)ccc21)N1CCc2ccccc2C1 | 5 | 8% | -1.1 | -45%[inhibitor] | 2.0% | 24% | -2
CCc1cccc(CC)c1NC(=O)C1CN(S(=O)(=O)c2ccccc2)CCN1S(=O)(=O)c1ccccc1 (stereo not given) | 1 | -13% | -1.8 | 4% | -2.0% | 13% | -1
CCOC(=O)c1c(C)nn(Cc2cccc(Cl)c2)c1N | 6 | -7% | ? | -40%[inhibitor] | -5.5% | 7% | 8
C#CCC(NC(=O)c1ccc(C#N)cc1)C(=O)NCCC (stereo not given) | 6 | 9% | / | 6% | 1.2% | / | 9
Cc1nn(Cc2ccc(Cl)cc2)c(C)c1N | -1 | 10% | 2.1 | 4% | 0.6% | 5% | 8
Cc1cccc(OCCNC(=O)c2cncc(Br)c2)c1 | / | 3% | -1.2 | 4% | -0.4% | 13% | -3
CN(C(=O)c1cc(-c2ccc3c(c2)OCO3)on1)c1ccccc1 | -2 | -1% | -0.4 | 11%[15.4 µM] | / | 12% | -6
Cc1ccc(C(=O)NCc2ccccn2)cc1S(=O)(=O)N1CCCCC1 | 8 | -28% | / | -15%[15.4 µM] | 1.0% | 15% | -5
Cc1csc2ncc(C(=O)NCCC(c3ccccc3)c3ccccc3)c(=O)n12 | 6 | 5% | 0.9 | 23% | / | -16% | 5
COc1ccc(C(=O)NC2CC(C)(C)Cc3c2cnn3-c2ccccc2)c(OC)c1 (stereo not given) | -1 | ? | / | -16% | -0.5% | -4% | -22

Among those listed so far, three contain bromine:
mol | CtBP-E1A inh | gsp antag | Menin-MLL FL inh | gsp ag | ClpP mod | Sfp inh | TRPV1 PAM
CCOc1cc(C(=S)N2CCC(O)CC2)ccc1OS(=O)(=O)c1ccc(Br)cc1 | 4 | -28% | -1.2 | 2% | -1.0% | ? | -6
Cc1cc(NC(=O)c2cc(-c3ccncc3)nc3ccccc23)ccc1Br | 3 | -14% | / | -7% | -4.4% | / | /
Cc1cccc(OCCNC(=O)c2cncc(Br)c2)c1 | / | 3% | -1.2 | 4% | -0.4% | 13% | -3
